# D2 agonist: Beta-Arrestin HTS for Positive Allosteric Modulators of the Human D2 Dopamine Receptor: Agonists | D(2) dopamine receptor (Homo sapiens), P14416 | DiscoveRx PathHunter D2 beta-arrestin, luminescence, 90 min; 100% = 57 uM dopamine signal | activation, % (test concentration not listed) | 0.084% of 360,000 active | AID 624465, 2012; in the data active = activation above about 40%; inconclusive = about 15% to 40%; inactive = below about 15%; also: compound concentration not given in the record; the text of the record calls up to 30% inactive
# Target sequence (P14416 whole entry, looked up): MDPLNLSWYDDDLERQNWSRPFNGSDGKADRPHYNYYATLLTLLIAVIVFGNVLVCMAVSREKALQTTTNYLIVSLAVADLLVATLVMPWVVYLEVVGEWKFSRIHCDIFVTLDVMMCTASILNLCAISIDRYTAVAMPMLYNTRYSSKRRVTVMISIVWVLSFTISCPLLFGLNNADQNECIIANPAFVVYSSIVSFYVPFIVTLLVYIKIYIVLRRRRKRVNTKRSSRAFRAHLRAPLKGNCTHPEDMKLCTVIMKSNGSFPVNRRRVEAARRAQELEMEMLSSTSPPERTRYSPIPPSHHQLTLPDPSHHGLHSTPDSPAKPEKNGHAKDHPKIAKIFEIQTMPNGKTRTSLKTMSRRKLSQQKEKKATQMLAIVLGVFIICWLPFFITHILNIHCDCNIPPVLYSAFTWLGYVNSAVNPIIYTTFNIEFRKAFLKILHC
#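 DiscoveRx PathHunter D2 beta-arrestin cells (2,100/well) attached overnight, then compound-stimulated 90 min at 37 C in HBSS/10 mM HEPES/0.1% Tween-20 buffer; beta-galactosidase complementation read by luminescence after 1 h at ambient temperature. Dopamine 57 uM final (EC100) as control.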
# TRPML1 agonist: qHTS for Agonists of the Human Mucolipin Transient Receptor Potential 1 (TRPML1). TRPML1-expressing cells, Ca2+ dye fluorescence, FDSS; host cell line not named in the record; reference of the full effect not given here. activation, % (concentration not given with the values). 0.12% of 410,000 active. AID 624414, 2012; in the data active = activation above about 50%; inconclusive = about 30% to 50%; inactive = below about 30%; also: 0% is about no effect; the text of the record puts the active cut at 80%
# Target sequence (Q9GZU1 whole entry, looked up): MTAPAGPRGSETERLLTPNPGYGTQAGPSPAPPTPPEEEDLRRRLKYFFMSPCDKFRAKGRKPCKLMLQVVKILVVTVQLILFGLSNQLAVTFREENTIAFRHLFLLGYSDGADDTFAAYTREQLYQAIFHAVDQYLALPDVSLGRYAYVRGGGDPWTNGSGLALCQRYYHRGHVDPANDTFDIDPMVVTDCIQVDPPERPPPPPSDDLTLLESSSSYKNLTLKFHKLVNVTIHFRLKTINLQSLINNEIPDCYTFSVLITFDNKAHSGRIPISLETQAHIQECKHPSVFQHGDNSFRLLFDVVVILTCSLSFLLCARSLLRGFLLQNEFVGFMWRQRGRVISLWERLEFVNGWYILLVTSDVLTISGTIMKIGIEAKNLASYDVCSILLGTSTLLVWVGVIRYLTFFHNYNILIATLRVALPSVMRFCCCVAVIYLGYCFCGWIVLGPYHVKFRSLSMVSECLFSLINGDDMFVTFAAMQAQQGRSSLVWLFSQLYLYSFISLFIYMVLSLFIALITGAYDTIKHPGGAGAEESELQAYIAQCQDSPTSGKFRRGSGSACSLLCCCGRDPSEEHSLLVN
#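 TRPML1-DL cells, Tet-induced overnight (~16 h, 37 degrees C), loaded 45-90 min at room temperature with Ca8 no-wash calcium dye plus quencher. FDSS fluorescence: 10 s baseline, compound pin-transfer, 110 s agonist read, then EC80 54-4 (4uM final) and 110 s antagonist read.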
# D2 potentiator: Beta-Arrestin HTS for Positive Allosteric Modulators of the Human D2 Dopamine Receptor: Potentiators; 0.23% of 360,000 active; DiscoveRx D2 beta-arrestin cells, luminescence, 90 min; 100% = 57 uM dopamine signal; potentiation, % (concentration not given with the values); active = potentiation of 50% or more; inconclusive = 30% to 50%; inactive = 30% or less;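 also: compound concentration not given in the record; tested on top of an EC20 dose of dopamine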
#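 PathHunter D2 cells, attached overnight at 37 deg C, received compound in DMSO plus dopamine at EC20 (50 nM final) for 90 min at 37 deg C. Beta-arrestin recruitment was read as luminescence after 1 h with detection reagent at ambient temperature.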
# Six1-Eya2 blk: qHTS Assay for Inhibitors of the Six1/Eya2 Interaction; AID 651725, 2012; AlphaScreen GST-Six1/His-Eya2 binding, biochemical; stronger effect = lower value; control for the full effect not named in the record; activity change, % (concentration not given with the values); Homeobox protein SIX1 (Homo sapiens) + Protein phosphatase EYA2 (Homo sapiens), …; 0.56% of 360,000 active; in the data active = activity change below about -65%; inconclusive = about -30% to -65%; inactive = above about -30%; also: % is scaled to controls: 0 for no effect and ±100 for the full control effect
#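 Six1/Eya2 binding was read as AlphaScreen signal after compounds were pinned into GST-Six1 plus His-tagged Eya2 (5X stock 250/500 nM) in pH 8.0 Tris/NaCl/TCEP buffer, beads added, then incubated 1 h, 37 C, dark.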
# PINK1 modulator: A Quantitative High throughput Screen to Identify Chemical Modulators of PINK1 Expression; PINK1 immunofluorescence, high-content cytometry, 24 h; Potency, µM (titrated, usually from 76.6 µM), for the others: at the top dose activation (PINK1 increase), hits mostly activators; 0.2% of 410,000 active; active = well fitted activation curve with a large enough effect; inconclusive = small, poorly fitted or top-dose-only effect; inactive = flat fitted curve, though single readings scatter; cell line not stated here;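 also: potency is read from the fitted curve at half-maximal effect; % of control where 0% means no effect; nearly all actives have a fitted effect of over 65% in size; a mitochondrial uncoupler was the plate control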
#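 Stable cell line, 250 cells/well, 12 h attachment; compounds pinned at 5 concentrations, 24 h; CCCP control. Fixed with nuclear dye, primary antibodies 12 h at 10 degrees C, secondary plus cell stain; laser-scanning cytometer read.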
# TRPML1 inh: qHTS for Inhibitors of the Human Mucolipin Transient Receptor Potential 1 (TRPML1). 0.02% of 390,000 active. TRPML1-inducible cells, Ca2+ dye fluorescence, FDSS; stronger effect = lower value; inhibition of EC80 agonist-evoked calcium signal. activity change, negative = inhibition, % (test concentration not listed); in the data active means activity change below about -50%; inconclusive means about -30% to -50%; inactive means above about -30%;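 also: stimulus is agonist 54-4 at its EC80 concentration; % is scaled to controls: 0 for no effect and ±100 for the full control effect; compound concentration not given in the record; the text of the record puts the active cut at -80%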
#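 TRPML1-DL cells, Tet-induced overnight (~16 h, 37 °C) at 1,500 cells/well, were loaded with Ca8 no-wash dye plus quencher for 45-90 min at room temperature. Compounds were pinned during FDSS kinetic reading; agonist 54-4 at EC80 (4 uM final) then added.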
# Starred values were filed as active, the others as inactive; ? = inconclusive; nt = no result given; [ ] = remark or other dose.
# The line under a structure holds: D2 agonist	TRPML1 agonist	D2 potentiator	Six1-Eya2 blk	PINK1 modulator	TRPML1 inh
- CC1=C(C(=O)N(C)C)CC(CC(=O)NCC2CCCCC2)C(=O)N1Cc1ccccc1 (stereo unspecified)
→ 1.0	-0.3	2.5	18.3	-0.3%	-13.9
- COc1ccccc1CNC(=O)C1CCC(CNS(=O)(=O)c2cccs2)CC1 (stereo unspecified)
→ 3.3	-0.5	-5.4	5.8	-2.9%	-8.0
- CCS(=O)(=O)c1oc(-c2ccc(F)cc2)nc1S(=O)(=O)c1ccccc1
→ nt	1.5	nt	nt	-1.5%	12.2
- CCCNC(=O)C1CCN(c2ncnc3c2nc2n3CCCCC2)CC1
→ nt	1.6	nt	nt	1.1%	17.6
- CCOc1ccc(CCN2C(=S)N([C@@H](Cc3ccccc3)CN3CCC[C@@H]3CN3C(=S)NC[C@@H]3Cc3ccc(O)cc3)C[C@@H]2CC(C)C)cc1
→ 5.4	-0.2	1.1	-5.6	5.1%	9.5
- COc1cccc2cc(-c3csc(-c4ccc(Cl)cc4)n3)c(=O)oc12
→ nt	-0.1	nt	nt	3.8%	-6.8
- CC(C(=O)NCc1ccco1)c1ccc([N+](=O)[O-])cc1 (stereo unspecified)
→ 2.7	0.0	-9.2	12.6	-0.7%	-18.7
- CC(C)NC(=O)NC(=O)COC(=O)Cc1ccsc1
→ -6.3	-0.2	-9.2	4.6	-1.2%	-5.6
- Cc1ccc(C)c(Oc2nnnn2-c2ccccc2)c1
→ -0.7	-0.6	1.5	28.1	-0.3%	-4.2
- N#C/C(=C1/C(=O)Nc2ccc(Br)cc21)c1ccccn1
→ -5.0	3.3	-6.2	1.2	-0.1%	1.0
- CCC(=O)c1cc2c(cc1NC(=O)C(C)C)OCCO2
→ -4.9	1.2	-14.4	0.5	3.6%	-9.3
- COc1ccccc1CNS(=O)(=O)c1ccc(-n2cccn2)cc1
→ 0.6	2.1	0.8	-1.1	1.5%	15.4
- CCC(C)NC(=O)CSC1=Nc2ccccc2C2=NC(CC(=O)NCc3ccc(F)cc3)C(=O)N12 (stereo unspecified)
→ 1.8	-0.3	-5.2	3.6	2.0%	5.7
- Cc1cc(SCc2c(F)cccc2Cl)nc(=O)[nH]1
→ 0.6	-0.5	-3.3	-0.3	0.4%	-10.7
- COc1cc(C2CC(=O)Oc3c2c(=O)[nH]c2ccccc32)cc(OC)c1OC (stereo unspecified)
→ nt	1.7	nt	nt	1.4%	-2.0

# The list goes on:
# The line under a structure holds: D2 agonist	TRPML1 agonist	D2 potentiator	Six1-Eya2 blk	PINK1 modulator	TRPML1 inh
- Cc1ccc(S(=O)(=O)NCc2ccccn2)c(C)c1
→ -0.6	0.7	-1.6	0.1	0.2%	-4.1
- NC(=O)c1ccccc1NC(=O)CSc1nc2c(c(=O)[nH]1)CCCC2
→ 2.8	0.9	-1.1	-10.6	0.9%	-0.6
- CCOCCCNC(=O)NC(C)c1c(-n2cccc2)sc2c1CCN(CC)C2 (stereo unspecified)
→ nt	2.4	nt	nt	0.5%	-25.8
- CCCOc1ccc(C(=O)NC(=S)N2CCN(c3ncc4c(=O)c(C(=O)O)cn(CC)c4n3)CC2)cc1
→ -0.7	-0.3	-9.8	-1.3	?	-10.4
- CCOC(=O)c1ccc(N=C2SC(C(=O)NCCc3ccccc3)CC(=O)N2C)cc1 (stereo unspecified)
→ 1.5	-0.3	-0.8	0.2	1.4%	-14.1
- CSC1=NS(=O)(=O)c2c(C)nn(C)c2S1
→ ?	-0.2	-9.0	3.1	5.7%	19.6
- Cc1ccc(COC(=O)c2cc(S(=O)(=O)N3CCOCC3)ccc2C)cc1
→ -4.7	1.8	1.4	15.0	-0.6%	67.7
- O=C(c1ccc2c(c1)N(Cc1ccccc1F)C(=O)c1ccccc1S2=O)N1CCOCC1 (stereo unspecified)
→ nt	-1.0	nt	nt	1.4%	-15.8
- Cc1nc(-c2ccccc2)sc1-c1ccc(SCC(=O)Nc2ccccc2)nn1
→ nt	1.3	nt	nt	1.6%	6.6
- O=C(CC1SCCNC1=O)Nc1ccccc1Cl (stereo unspecified)
→ -6.7	-0.8	-9.3	17.4	-1.1%	-18.9
- O=C(CSC1c2ccccc2C(=O)N1c1ccccc1)N1CCOCC1 (stereo unspecified)
→ -0.9	2.9	-4.7	3.6	3.1%[38.3 µM]	16.7
- O=C(CCS(=O)(=O)c1cccs1)Nc1ccc(C(=O)NCc2ccc(F)cc2)cc1
→ 1.4	0.5	-3.0	5.4	0.3%	-8.6
- Nc1nnn(Cc2ccccc2)n1
→ -0.4	-0.6	2.8	-0.6	3.1%	5.9
- COc1ccc(CCNC(=O)C2CCN(C(=O)c3ccc(Cl)cc3)CC2)cc1OC
→ -3.0	-0.3	0.0	4.4	0.6%	-7.7
- CCOc1ccc(NC(=O)CN(C)C(=O)C2CC(=O)N(c3ccc4c(c3)OCCO4)C2)cc1OCC (stereo unspecified)
→ -2.8	0.1	-5.9	-0.9	1.9%	19.2

# (continued)
# The line under a structure holds: D2 agonist	TRPML1 agonist	D2 potentiator	Six1-Eya2 blk	PINK1 modulator	TRPML1 inh
- CCCCCNC(=O)c1cc(S(=O)(=O)N2CCCCC2)ccc1F
→ -2.5	0.1	-7.2	2.0	2.2%[38.3 µM]	-1.5
- CN(C)CCNc1ncnc2c1ncn2[C@H]1CN(Cc2ccc(F)cc2)C[C@@H](CO)O1
→ -4.7	0.1	-11.2	9.0	1.2%	nt
- Cc1ccccc1OCC(=O)Nc1cccc(S(=O)(=O)NC2=NCCCCC2)c1
→ 0.6	-0.7	-1.0	-0.5	0.7%	22.7
- NC(=O)CSc1oc(-c2ccco2)nc1S(=O)(=O)c1ccc(F)cc1
→ -9.9	-1.2	-10.8	1.8	-0.1%	-3.3
- CC(Sc1cnc2ccccc2n1)C(=O)O (stereo unspecified)
→ -3.9	-0.4	-0.6	-0.7	0.5%	57.1
- O=C(NCc1ccncc1)c1ccc(Br)cc1
→ -2.2	-1.0	-10.4	2.3	-1.7%	18.7
- C=C1c2cc(CC)ccc2NC(=O)N1c1ccc(C)cc1
→ -9.0	0.1	-24.5	8.6	3.1%	-1.1
- COc1ccc(C2CC(c3ccccc3)=NN2C(=O)CN2N=NC3C(=O)N(c4cccc(F)c4)C(=O)C32)cc1 (stereo unspecified)
→ -3.0	0.8	-16.7	-13.6	1.3%	-3.4
- NC(N)=NN=C1CCC(c2ccccc2)CC1 (stereo unspecified)
→ -1.7	0.7	-9.5	4.0	1.4%	61.0
- NS(=O)(=O)c1ccc(NCCCn2ccnc2)c([N+](=O)[O-])c1
→ -4.7	-0.1	-8.9	-6.0	0.4%	-8.4
- COC(=O)c1[nH]c2cc(OC)ccc2c1NC(=O)c1nonc1C
→ 0.7	0.2	-9.2	3.7	nt	-0.6
- Cc1cc(C)c[n+](-c2nc3ccccc3nc2[N-]S(=O)(=O)c2ccc(Cl)cc2)c1
→ -3.3	-0.3	-3.5	0.0	-1.1%	-21.2
- O=C(CSc1ccc(-c2cccnc2)nn1)Nc1ccc(F)cc1F
→ -3.8	-0.3	5.7	-9.4	-1.2%	-0.5
- COc1ccc2[nH]c(=O)c(CN(Cc3ccccc3)C(=S)NCC3CCCO3)cc2c1 (stereo unspecified)
→ -5.0	2.0	-5.3	6.5	-0.5%	20.7
- CCOC(=O)C1=C(COC(=O)CCOc2ccccc2C)NC(=O)NC1C (stereo unspecified)
→ 0.4	1.4	2.5	-6.2	0.1%	26.7

# Continued:
# The line under a structure holds: D2 agonist	TRPML1 agonist	D2 potentiator	Six1-Eya2 blk	PINK1 modulator	TRPML1 inh
- Cc1cc(N2CCCC(C(=O)Nc3cccc(Cl)c3)C2)n2ncnc2n1 (stereo unspecified)
→ -7.9	0.3	-8.4	-7.3	0.5%	-3.0
- O=C(Nc1cccc(-c2nn[nH]n2)c1)c1ccc(Br)s1
→ -4.9	0.1	11.4	?	-1.8%	35.8
- Cc1ccc(Cn2ccn(Cc3ccc(C)cc3)c(=O)c2=O)cc1
→ nt	1.8	nt	nt	3.1%	-9.9
- COCCn1c(C)cc(C(=O)COC(=O)c2ccc(S(=O)(=O)N(C)C)cc2)c1C
→ -2.7	1.2	-8.5	-4.0	5.8%	-3.7
- Cc1ccc(OCCn2nnc3sc4c(c3c2=O)CCC(C)C4)cc1 (stereo unspecified)
→ nt	3.0	nt	nt	5.1%	-3.1
- C=CCn1c(C)cc(C(=O)COC(=O)/C=C/c2cccc(OC)c2)c1C
→ -0.8	-0.1	1.3	-25.9	1.4%	6.4
- CSc1ccccc1OCc1cc(C(=O)N(C)Cc2c(C)n[nH]c2C)no1
→ -0.3	-0.1	-17.6	-8.8	1.0%	24.3
- O=C(N/N=C\c1c(O)ccc2ccccc12)c1ccc(O)cc1
→ 0.2	0.4	-7.8	-65.0*	-0.4%	34.5
- Cc1cc(Cl)c(S(=O)(=O)N/N=C/c2ccc3c(c2)OCO3)c(Cl)c1
→ 0.5	-0.5	-11.3	-9.4	11.9%	3.6
- COCOc1cc(O)c(C(=O)/C=C/c2ccccc2)c(OCOC)c1
→ -6.5	nt	-57.6	4.2	-0.8%	nt
- COc1ccc(S(=O)(=O)Nc2cc3c4c(c2)CCC(=O)N4CCC3)cc1C
→ -3.7	0.3	1.1	-4.8	0.2%	0.8
- COc1cc(O)c2c(=O)c3c(OC)c(O)ccc3oc2c1
→ -2.8	-0.6	-14.2	-9.0	1.1%	4.5
- O=C(NCC(=O)N(c1cccnc1)C(C(=O)NC1CCCC1)c1cccs1)c1cccs1 (stereo unspecified)
→ -3.9	-1.0	-1.0	6.2	-0.2%	3.9
- CC(C)CNC(=O)Nc1ccccc1F
→ -3.9	0.3	-12.7	3.6	1.1%	25.5
- Nc1nc2n(n1)C(c1ccccc1)CC(c1ccc(F)cc1)N2 (stereo unspecified)
→ -0.9	0.9	-3.4	1.3	1.9%	1.0
- O=C(/C=C/c1cccs1)Nc1ccncc1
→ -2.0	-0.9	-4.5	-13.3	-0.4%	7.0
- COc1ccc(C(CNC(=O)Cn2[nH]c(=O)c3ccccc3c2=O)N2CCCC2)cc1 (stereo unspecified)
→ -1.5	2.7	-13.7	2.1	-3.0%	-13.9
- CC1CCCCN1C(=O)C1CC(c2ccc(F)cc2)=NO1 (stereo unspecified)
→ -0.5	1.7	-7.9	1.7	7.2%[38.3 µM]	5.9

# Bioassay records (PubChem)
